# Mtb bLac sens – beta-lactam sensitization of Mtb H37Rv. M. tuberculosis H37Rv growth with meropenem, percent inhibition; hits of this screen are not shown here. AID 434955. inhibition, % at 25 µM. 330,000 tested, 0.27% active;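 active = about 74% or more and at least 40 points above the plate without the antibiotic, then above 30% in a dose series; inconclusive = first-round hits that could not be retested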;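 note: growth measured after seven days incubation then overnight dye step; 0% = bacteria only wells and 100% = bacteria with antibiotic; twin plates without the antibiotic show which effects depend on it; some results filed as inactive read as strong as hits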
# RecA splice inh – inhibitors of M. tuberculosis RecA intein splicing; cell-free RecA intein splicing, fluorescence; inhibition, %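 (about 9 µM by stock and volumes)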; 290,000 tested, 0.75% active; in the data active = inhibition above about 30%; inconclusive = no clear call, values can overlap the other calls;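 note: 0% = vehicle wells and 100% = reference inhibitor control wells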
# Target sequence (P9WHJ3 whole entry, looked up, canonical isoform): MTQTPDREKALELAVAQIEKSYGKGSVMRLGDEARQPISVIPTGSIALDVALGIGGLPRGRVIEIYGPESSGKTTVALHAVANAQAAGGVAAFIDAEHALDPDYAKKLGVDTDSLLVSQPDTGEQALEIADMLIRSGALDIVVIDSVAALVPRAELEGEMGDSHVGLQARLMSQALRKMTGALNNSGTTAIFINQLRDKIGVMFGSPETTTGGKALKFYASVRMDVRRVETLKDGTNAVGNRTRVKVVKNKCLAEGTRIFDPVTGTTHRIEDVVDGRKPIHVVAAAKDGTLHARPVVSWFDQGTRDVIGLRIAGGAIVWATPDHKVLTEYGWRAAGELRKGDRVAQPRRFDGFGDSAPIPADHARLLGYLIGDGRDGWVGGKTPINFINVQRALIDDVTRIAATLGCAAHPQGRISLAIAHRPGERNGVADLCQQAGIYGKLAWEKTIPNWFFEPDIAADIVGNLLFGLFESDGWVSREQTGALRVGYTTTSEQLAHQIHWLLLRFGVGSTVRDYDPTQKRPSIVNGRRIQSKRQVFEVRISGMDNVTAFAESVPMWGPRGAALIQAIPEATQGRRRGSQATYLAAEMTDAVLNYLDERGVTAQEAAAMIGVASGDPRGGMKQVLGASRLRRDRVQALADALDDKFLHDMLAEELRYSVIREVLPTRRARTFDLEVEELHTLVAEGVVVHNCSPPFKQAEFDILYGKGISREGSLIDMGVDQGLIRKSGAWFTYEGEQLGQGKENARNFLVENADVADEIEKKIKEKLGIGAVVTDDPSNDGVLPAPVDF
# YopH PTP inh – blocks Yersinia enterocolitica YopH tyrosine phosphatase | 140,000 tested, 0.16% active | inhibition, %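 (about 10 µM by stock and volumes)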 | fluorescence Ex485/Em525;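 active = inhibition of 50% or more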;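 note: controls were vehicle for no effect and minimum signal wells for full effect; inactives centre near -20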
# Mtb growth – M. tuberculosis H37Rv growth inhibitors, H37Rv strain (AID 1626) | 220,000 tested, 0.95% active | inhibition, % at 10 µM, or IC50 in µM where a hit was titrated | M. tuberculosis H37Rv growth inhibition; higher % means a stronger effect;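 active = confirmed in a dose series; inconclusive = inhibition above 80% but not taken into the dose series; inactive = below 80% or under 30% at every dose of the series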;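 note: bacteria incubated seven days before Alamar blue readout; 0% = bacteria only wells and 100% = bacteria with antibiotic wells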
# Arbovirus anti – blocks arbovirus infection | arbovirus infection cell-based antiviral screen | 200,000 tested, 0.37% active | AID 1251 | inhibition, % at 10 µM;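 active = inhibition from about 30%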;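 note: bluetongue infection of BSR cells; cell survival read as ATP light after 72 h; 0% = infected wells without compound and 100% = uninfected wells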
# Arbovirus anti repeat – second read-out of Arbovirus anti, no call of its own (marks repeat the call); inhibition, %; measured here: 10K subset replicate screen; many hits read low in the repeat;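 first of two repeat runs on a subset; 0% = infected and 100% = uninfected wells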
# Starred values were filed as active, the others as inactive; ? = inconclusive; · = no result given.
# The opening 2 compounds, ahead of the listing:
SMILES,Mtb bLac sens,RecA splice inh,YopH PTP inh,Mtb growth,Arbovirus anti,others
COC(=O)c1cccc(NC(=O)Nc2ccc(Cl)c(Cl)c2)c1,-4.2,2.4,-33.8,51.3%,2.2,
CCc1cc2c(NCC3CCCO3)ncnc2s1 (stereo not drawn),-5.5,0.1,-26.0,-0.2%,2.0,Arbovirus anti repeat=3.0

# Results, from the first entry:
SMILES,Mtb bLac sens,RecA splice inh,YopH PTP inh,Mtb growth,Arbovirus anti,others
COC(=O)c1cccc(NC(=O)Nc2ccc(Cl)c(Cl)c2)c1,-4.2,2.4,-33.8,51.3%,2.2,
CCc1cc2c(NCC3CCCO3)ncnc2s1 (stereo not drawn),-5.5,0.1,-26.0,-0.2%,2.0,Arbovirus anti repeat=3.0
Cn1c(=O)cc(SCC(=O)NCc2ccc(F)cc2)c2ccccc21,-3.1,-0.1,·,3.0%,-17.7,
COc1ccccc1C1CC(c2ccc(F)cc2)Nc2ncnn21 (stereo not drawn),-3.1,-2.2,-48.9,-1.5%,0.6,
Cc1cc(C)n(-c2nnc(C)n2/N=C/c2ccccc2F)n1,-9.8,-1.8,6.3,-2.1%,3.6,
O=C(c1ccc(F)cc1)c1cc2ccccc2o1,8.6,1.0,-27.8,6.5%,-3.3,
C=CC(C)C(C(=O)c1ccccc1)N(C)C (stereo not drawn),-3.2,-1.4,·,·,6.3,
CCN(CC)C(=O)C1CCCN(Cc2ccc(F)c(F)c2)C1 (stereo not drawn),-12.3,1.4,-20.0,-6.7%,0.3,
O=C1CCC/C(=N\NC(=O)NC2CCCCC2)C1,0.2,0.0,·,0.2%,-0.4,
Cc1cccc(-n2ccnc2SCC(=O)Nc2ccc3c(c2)OCCO3)c1,1.4,12.1,-127.7,-6.7%,5.6,
O=C(N/N=C/C=C\c1ccccc1[N+](=O)[O-])c1ccccn1,57.0,0.5,-20.6,-11.6%,-3.6,
CCOc1cc(/C=C2\C(=N)N3N=C(S(=O)(=O)CC)SC3=NC2=O)ccc1OC(=O)c1ccco1,4.5,30.7*,·,·,·,
COCCOC(=O)c1c(C)oc2ccc(OS(C)(=O)=O)cc12,-1.0,-2.8,·,10.4%,-7.9,
O=C(Nc1ccc(F)cc1)N1CCN(CCc2ccccc2)CC1,-1.0,-0.3,·,1.8%,0.6,
O=C(N/C=C\c1ccccc1)NCc1ccc(Cl)cc1Cl,-8.2,-0.2,-52.4,-0.2%,0.7,
COc1ccc(S(=O)(=O)N2CCC(NC(=O)C3CCCCC3)CC2)cc1,-7.6,1.6,·,·,·,
C=CCSc1nc2ccccc2c(=O)[nH]1,-1.0,-5.0,-3.2,3.6%,-0.4,Arbovirus anti repeat=0.2
CC(Nc1nc(N2CCN(S(C)(=O)=O)CC2)nc2ccccc12)c1ccccc1 (stereo not drawn),7.7,1.7,-11.9,0.3%,2.1,
CC(C)(C)OC(=O)N1CC2Cc3[nH]c(=O)ccc3C(C2)C1 (stereo not drawn),3.1,-2.8,-24.7,2.0%,1.6,
COc1ccc(C2CC(c3cccs3)=NN2C(=O)CSC2=NN3CCCC(=O)N=C3S2)cc1 (stereo not drawn),62.3,5.2,-32.3,7.2%,-0.7,
CCCCn1c(N)c(N(CCOC)C(=O)C(C)Oc2ccc(Cl)cc2)c(=O)[nH]c1=O (stereo not drawn),-12.9,0.6,·,·,·,
CC(C)(C)CC(=O)Nc1cccc(-c2cn3cccnc3n2)c1,-6.8,-0.5,·,4.7%,-2.9,
N#CCOC(=O)c1sccc1-n1cccc1,2.1,4.7,-28.8,-6.1%,8.8,
COc1ccc(Nc2c3c(nc4ccccc24)CCC3)c(OC)c1,2.8,1.7,·,·,·,
CC1CC(C)CN(C2CCCCC2NS(=O)(=O)c2ccc(Cl)cc2)C1 (stereo not drawn),1.0,0.3,·,·,·,

# New compounds follow:
SMILES,Mtb bLac sens,RecA splice inh,YopH PTP inh,Mtb growth,Arbovirus anti,others
CCOc1ccccc1N1CCN(C(=O)Nc2cccc(Cl)c2)CC1,6.0,7.3,-3.6,4.4%,2.5,
Cc1cccc(NC(=O)COn2nnc3ccc(S(C)(=O)=O)cc32)c1,2.1,2.6,·,-1.5%,2.2,
CCOc1cccc2cc(C(=O)Oc3ccc(OC)cc3)c(=O)oc12,70.9,-1.4,·,·,·,
CCOC(=O)c1ccccc1NC(=O)C1CC(=O)N(c2ccccc2)C1 (stereo not drawn),-2.3,0.9,·,-0.3%,-4.5,
CC12CCC(C(=O)Nc3c(Cl)cccc3Cl)(C(Br)C1=O)C2(C)C (stereo not drawn),-6.6,-3.4,-34.7,-5.9%,-2.3,
CC(=O)NC(C)Cc1ccccc1 (stereo not drawn),-17.4,-0.9,-6.7,2.8%,1.2,
Cc1cccc(-c2nc3c(c(SCC(=O)N4CCOCC4)n2)COC(C)(C)C3)c1,0.7,4.3,·,·,·,
CCOc1cc(S(=O)(=O)NCc2ccccn2)ccc1Cl,17.9,-0.6,-10.1,4.5%,-0.5,
S=C(NCCc1ccccc1)N/N=C/C1CCCCC1,99.2,3.8,·,4.5%,-1.4,
CCNc1nc(NC(C)C)nc(OCCOC(=O)c2ccccc2)n1,-1.9,-1.5,-16.2,-1.8%,9.4,
CCOc1ccc(C(=O)NCCc2cnc[nH]2)cc1,-2.6,-0.7,·,·,·,
Cc1sc(NC(=O)/C=C/c2ccc(C(C)C)cc2)c(C#N)c1C,0.4,-2.4,-59.2,-2.7%,-17.7,
CCc1ccc(NC(=O)CSc2nnc(C3CC3)n2CC2CCCO2)cc1 (stereo not drawn),0.4,0.0,·,·,·,
COc1cccc(CN(C)C(=O)c2cc(-c3ccc(OC)c(OC)c3)nc3ccccc23)c1,21.3,7.8,·,·,·,
O=C(NCc1ccc2c(c1)OCO2)C1CCCN1C(=O)Nc1cccc(F)c1 (stereo not drawn),0.1,-0.9,-0.1,-4.7%,-8.4,
Cc1ccc(OCCN2CCN(C(=O)CCC(=O)Nc3nnc(CC(C)C)s3)CC2)cc1,-4.5,-1.5,·,18.6%,·,
Cc1cc(NC(=O)COC(=O)CNC(=O)c2cccs2)c([N+](=O)[O-])cc1C,-7.1,-0.4,·,·,·,
O=C(NCc1ccco1)c1ccc2c(c1)N(Cc1ccccc1)C(=O)CS2=O (stereo not drawn),?,-0.3,-12.2,-2.6%,-7.7,Arbovirus anti repeat=-4.2
CC(C)NC(=O)Cn1cc(C#N)c2cc(Br)ccc21,-6.6,0.2,-21.8,-2.5%,-1.0,
ON(Cc1c(F)cccc1Cl)Cc1c(F)cccc1Cl,-8.2,-1.6,·,1.3%,·,
CCOc1cccc(NC(=O)Cn2nc(-c3ccc4c(c3)OCCO4)ccc2=O)c1,-4.2,0.7,-29.9,-6.4%,8.3,
Cc1ccn2c(NC3CCCC3)c(-c3ccsc3)nc2c1,2.9,-3.9,·,10.2%,3.9,
O=C(NC(=O)c1ccccc1)NC1(C(F)(F)F)OCCO1,-4.0,-3.3,0.3,-9.5%,-1.8,
CCCc1cc(Nc2ccccc2)n2ncnc2n1,-0.3,-1.4,·,·,·,
COc1ccc(C(=O)NCCS(=O)(=O)N2CCc3ccccc3C2)c(OC)c1,-2.0,0.3,·,·,·,

# New compounds follow.
SMILES,Mtb bLac sens,RecA splice inh,YopH PTP inh,Mtb growth,Arbovirus anti,others
O=C(COC(=O)CN1C(=O)c2ccccc2C1=O)NC1CCCCC1,-2.5,1.5,·,·,·,
COCC(=O)N(Cc1ccccc1)c1ccccn1,-8.7,0.0,-25.4,-5.4%,0.9,
Cc1cc(NC(=O)CN2C(=O)c3ccccc3S2(=O)=O)no1,?,1.3,·,·,·,
O=C(CF)NC(Nc1cccc2cccnc12)C(Cl)(Cl)Cl (stereo not drawn),5.1,4.6,-12.9,1.1%,1.8,
CN(C)S(=O)(=O)N1CCN(c2ccc(Cl)cc2)CC1,-7.8,-0.4,-35.5,0.5%,6.9,
O=C(NCCCN1CCOCC1)c1cc2c(s1)-c1ccccc1OC2,-0.6,-23.7,·,·,·,
Cc1cnc(C(=O)OCC(=O)Nc2ccc(Oc3ccccc3)cc2)cn1,36.9,2.8,-12.7,38.0%,-6.2,
O=c1ncn(-c2ccccc2F)c2ncccc12,-1.4,2.2,-29.9,10.3%,5.2,
CCOC(=O)c1sc(NC(=O)CCC(=O)O)nc1C,0.2,-1.6,·,0.1%,5.7,
CCn1c(COc2ccccc2OC)nnc1SCC#N,-2.3,-1.0,-24.4,-5.0%,1.3,
O=C(CSc1nncc2ccccc12)Nc1ccc(C(=O)O)cc1,-2.8,-0.2,·,·,·,
COc1cc(C(=O)OCC(=O)Nc2ccc3c(c2)OC(F)(F)O3)ccc1OCc1c(C)noc1C,69.7,5.4,0.6,-2.1%,-10.1,
CC(C)Cn1c(=O)c2c(nc3n2CC(C)CN3Cc2ccccc2)n(C)c1=O (stereo not drawn),4.8,0.7,·,·,·,
Cc1cc(COc2ccccc2OCCN2CCN(C)CC2)no1,-10.7,-2.1,-1.9,-7.5%,11.3,
Cc1cccc(NC(=O)c2ccc(C3SCC(=O)N3CCc3ccccc3)cc2)c1 (stereo not drawn),20.6,2.7,-48.0,13.2%,-10.3,
CC1C(=O)N2CCCc3cc(S(=O)(=O)Nc4ccccc4C(N)=O)cc1c32 (stereo not drawn),2.8,-1.4,·,·,·,
C[C@]12C(=O)N(c3ccc(C(F)(F)F)cc3)C(=O)N1[C@@H]1c3ccccc3OC[C@@H]1[C@H]2c1ccccc1,46.0,-0.2,·,·,·,
COc1ccc(C(=O)NCCS(=O)(=O)NCC2CCCO2)cc1 (stereo not drawn),-0.6,0.6,·,·,·,
COc1cccc(N2C(=O)N(c3ccccc3)C3CS(=O)(=O)CC32)c1 (stereo not drawn),7.4,1.6,-29.4,-7.0%,6.9,
COCCCn1c(-c2cccs2)nc2nc3ccccc3nc21,-1.1,-144.8,·,-0.7%,·,
COC(=O)c1cc(OC)c(OC)cc1NC(=O)c1cc(-c2ccccc2)nc2ccccc12,10.9,-1.1,2.8,·,22.1,
CCOc1ccc(/C=N/NC(=O)CC(=O)NCc2ccccc2)cc1,4.0,3.6,·,-7.7%,-10.2,
COc1ccc(CNC(=O)C2Cc3ccccc3CN2C(=O)c2ccco2)cc1 (stereo not drawn),1.9,1.0,·,-0.6%,0.2,
NS(=O)(=O)c1ccc(NC(=O)C2Cc3ccccc3CN2C(=O)c2ccco2)cc1 (stereo not drawn),-3.5,2.7,·,·,·,
Fc1ccccc1N1CCN(C(c2cccs2)c2nnnn2CCc2ccccc2)CC1 (stereo not drawn),5.8,·,-32.7,·,-7.2,

# More structures:
SMILES,Mtb bLac sens,RecA splice inh,YopH PTP inh,Mtb growth,Arbovirus anti,others
O=C(Nc1cccc(Cl)c1)Nc1ccc2nccnc2c1,2.1,1.2,·,·,·,
CC(C)(C)OC(=O)N1CCC(c2cc(=O)n3[nH]cc(C(=O)Nc4ccc(F)c(Cl)c4)c3n2)CC1,15.8,4.0,·,3.8%,·,
CS(=O)(=O)N(CC(=O)NCCC1=CCCCC1)c1cccc([N+](=O)[O-])c1,-4.9,4.4,·,2.9%,3.6,
CC(C)CCC(C)NC(=O)c1ccc2nccnc2c1 (stereo not drawn),-14.4,-1.7,·,-8.4%,-5.1,
CNC(=S)N(CCc1c(C)[nH]c2ccc(OC)cc12)Cc1ccco1,-10.2,1.1,·,·,·,
CCOCCCNC(=O)c1cc(=O)n(Cc2cccc(C)c2)c2ccccc12,-4.7,0.3,·,1.5%,8.8,
O=C(CSc1nc2ccccc2[nH]1)N1CCN(c2ccc(F)cc2)CC1,13.1,-0.8,-25.2,-2.3%,10.4,
COc1cc(/C=N/Nc2ccccn2)ccc1OCC(C)C,55.4,·,·,7.6%,-13.7,
CCNC(=O)C(=O)NCC(c1ccc2c(c1)OCO2)N1CCOCC1 (stereo not drawn),-6.8,2.6,·,·,·,
COC(=O)c1ccc(NC(=O)CSc2nnc(-c3ccccc3Br)n2-c2ccccc2)cc1,3.3,-0.5,·,·,·,
CCOC(=O)c1[nH]c2c(c1C)C(=O)CC(c1ccc(OC)c(OC)c1)C2 (stereo not drawn),-9.2,0.3,-13.6,6.5%,0.5,
CCCCn1c(=O)c(-c2ccccc2)c(O)c2ccccc21,-2.0,3.2,-42.3,-6.2%,10.9,
Cc1ccc(OCCC(=O)OCC(=O)c2c(N)n(C)c(=O)n(C)c2=O)cc1,1.9,1.1,·,·,·,
Cc1ccccc1CS(=O)(=O)c1nnc([C@H](Cc2ccccc2)NC(=O)OC(C)(C)C)o1,12.6,41.5*,-9.0,-0.2%,-36.2,
CCCCC(CC)CNS(=O)(=O)c1ccc2c(c1)CCN2C(=O)CCC(=O)O (stereo not drawn),-7.0,1.2,-14.2,-3.3%,4.3,
CCCCn1c(=O)c2c(O)cc(=O)oc2c2ccccc21,43.6,-1.5,-36.3,·,-4.1,
COc1cccc(NC(=O)CN(C)CC(=O)Nc2ccc3c(c2)CCC3)c1,21.4,3.1,·,43.1%,9.9,

# Screens (PubChem BioAssay)

# This is a subset, so the mix of outcomes need not match the whole.
